Compound activity (PubChem)
Biofilm kill mix: clotrimazole potentiators killing C. albicans biofilm, primary screen, 4-compound mixtures; hit rate 0.02% among 120,000; C. albicans biofilm persisters + clotrimazole, fluorescence viability; primary screen in compound mixtures of four per well; inhibition, % at 7.6 µM; AID 1242, 2008;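 active = inhibition above 30.3% in the primary screen of four-compound pools, then above 30% when the compound was retested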;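 also: compounds exposed to preformed 24 h biofilms for 48 h; the number belongs to the whole pool; some results filed as inactive read as strong as hits; inactives centre near 12; 0% = biofilm with clotrimazole alone and 100% = kill control; retested singly at about 60 µM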
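Test system: C. albicans CAF4-2 wild-type biofilms; buffer or medium: RPMI/MOPS medium, pH 7.0; schedule: 24 h biofilm formation, then 48 h compound exposure, 37 °C; detection: Alamar Blue fluorescence; measure: percent inhibition of biofilm viability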
* hit, by the source's call. These rows are one share of the data; count on the stated rates, not on these rows.

SMILES	Biofilm kill mix
O=C(OCc1nnc(-c2ccccc2)o1)c1cccnc1Cl	19
CC1(C)C(=O)OC(C(=O)c2ccc(Cl)cc2)C(C)(C)C1=O (centres undefined)	5
CN(C)CCCN(C(=O)CCc1ccccc1)c1nc2ccc(F)cc2s1	11
O=C(c1ccc([N+](=O)[O-])cc1)N1CCSC1c1ccc(Cl)cc1 (centres undefined)	13
CCc1nn(-c2ccccc2)c(=S)c2ccccc12	12
COc1ccc(CC(=O)NNc2ncnc3c2cnn3Cc2ccccc2)cc1OC	5
Cc1cccc(CC(C)NC(=O)CCc2nnc(CCCCc3ccccc3)o2)n1 (centres undefined)	9
O=C(CN1C(=O)CC(c2ccco2)Sc2ccccc21)NC1CCCCC1 (centres undefined)	16
CCOC(=O)/C(C#N)=N/Nc1ccc(S(=O)(=O)N2CCc3ccccc32)cc1	14
CS(=O)(=O)N(CC(=O)N/N=C/c1ccc(OCC(=O)N2CCOCC2)cc1)c1ccccc1Cl	2
CCOc1cc(/C=N/O)ccc1OCC(=O)Nc1cccc(C)c1	21
CCC(Sc1nc2cc(OC)c(OC)cc2c(=O)n1Cc1ccc(OC)cc1)C(=O)NCCOC (centres undefined)	5
NS(=O)(=O)c1ccc(N/N=C2/CCCc3ccccc32)c([N+](=O)[O-])c1	6
Cc1ccc(N=Cc2ccc(N(C)C)cc2)cc1C	11
C=CCNC(=O)c1cc2sccc2n1C	17
Clc1ccc(OCc2noc(-c3ccsc3)n2)c(Cl)c1	16
Cc1ccc(S(=O)(=O)N2CCOCC2)cc1NC(=O)COc1ccc(-c2nnco2)cc1	16
O=C(Nc1ccc2c(c1)OCO2)c1cccc2c1C(=O)N(C1CCCCC1)C2	5
CCN(CC)S(=O)(=O)c1ccc(/C=C/C(=O)OCC(=O)c2c(N)n(C)c(=O)n(C)c2=O)cc1	9
Cc1ccc(CSCc2ccc(C(=O)NC3CCCC3)o2)cc1	4
O=C(NC1CC1)C1=C[C@H](c2ccccc2)C[C@H](OCc2ccc(CO)cc2)O1	22
CN(Cc1nc2ccccc2[nH]1)Cc1nc(CC2CC2)no1	1
Cc1ccc(-c2nnnn2C2C/C(=N\NC(N)=S)C3OCC2O3)cc1 (centres undefined)	12
O=c1[nH]c2ccccc2c(O)c1-c1ccccc1	19
C=CCN1C(=O)C(CC(=O)O)SC1=Nc1ccc(C(=O)O)cc1 (centres undefined)	0
CSc1c(-c2ccccn2)c(N)nn1C(=O)C1CC1	23
O=C(/C=C/Nc1ccc(Cc2ccc(N/C=C/C(=O)C(F)(F)F)cc2)cc1)C(F)(F)F	5
COc1cc2c(cc1NC(=O)C(C)OC(=O)c1ccc(S(=O)(=O)Nc3ccccc3Cl)cc1)oc1ccccc12 (centres undefined)	2
O=C1OC(/C=C/c2ccccc2)=NC/1=C\c1cccnc1	29
CC(=O)Nc1ccc(NC(=O)C2CCN(C(=O)c3ccc([N+](=O)[O-])cc3)CC2)cc1	22
Nc1nc2c(Cl)cc(Cl)cc2s1	21
Cn1cc(Br)c(C(=O)NNC(=O)c2ccc(Cl)cc2)n1	7
COc1ccc(CN2CSC(=S)N(Cc3ccc(OC)cc3)C2)cc1	24
CN1C(=O)NC(c2ccc(O)cc2)C2=C1CN(c1ccc(O)cc1)C2=O (centres undefined)	8
CC(C)OC(=O)CSc1nnc2c3ccccc3n(C)c2n1	9
Cn1cnnc1SCc1ccc(C(=O)N/N=C/c2cccs2)cc1	-10
O=[N+]([O-])c1cccc(-c2csc(Nc3ccccc3)n2)c1	-2
C(=N\Nc1nc(N2CCOCC2)nc(N2CCOCC2)n1)/c1ccco1	16
Cc1nc2cc(-c3ccc(Cl)cc3)nn2c(NCCN(C)C)c1C	14
CC(C)(c1ccccc1)c1ccc(OCCN)cc1	4

Exported as a markdown table: entries from further up
| SMILES | Biofilm kill mix |
| --- | --- |
| O=C1OC(/C=C/c2ccccc2)=NC/1=C\c1cccnc1 | 29 |
| Cc1nc2cc(-c3ccc(Cl)cc3)nn2c(NCCN(C)C)c1C | 14 |

The list continues.
SMILES	Biofilm kill mix
O=C(Nc1ccc2c(c1)CCC2)c1ccccc1	20
Clc1ccc(-c2c[n+]3c(n2-c2ccccc2)SCC3)cc1	18
Cc1cc(C)cc(N(CC(=O)NCCSCc2ccco2)S(C)(=O)=O)c1	11
C=CCn1c(-c2ccc(Cl)cc2)cnc1SC(C)C(N)=O (centres undefined)	3
CCOc1ccc(NC(=O)c2sc(NC(C)=O)c(C(=O)OC)c2C)cc1	28
Cc1ccc(C)c(NC(=O)CN(C)C(=O)Cc2ccccc2)c1	16
CC(C)OC(=O)NCCOC(=O)Nc1ccccc1Cl	8
CCCN1C(=O)CSC1=Nc1ccccc1	16
COc1ccc(C(=O)COC(=O)CCc2nc3ccccc3[nH]c2=O)cc1Br	17
CC(=O)N1CCN(c2ccccc2NC(=O)COc2ccccc2C)CC1	30
O=C(NC1CC1)C1CCN(C2CCN(C(=O)c3ccc4cccc(F)c4n3)CC2)CC1	3
Clc1ccc(C2[C@H]3CN(Cc4ccc(-c5ccccc5)cc4)[C@H](c4ccccc4)C34CC2(c2cccnc2)C4)cn1 (some centres undefined)	20
CCOC(=O)C1=C(C)NC2=C(C(=O)CC(C)(C)C2)C1c1coc2ccccc2c1=O (centres undefined)	5
CCc1c(C)sc(NC(NC(C)=O)(C(=O)OC)C(F)(F)F)c1C#N (centres undefined)	3
C=CCN(CC(=O)NC1CCS(=O)(=O)C1)S(=O)(=O)c1ccccc1C(F)(F)F (centres undefined)	10
O=C1CCC(C(=O)Nc2ccccc2)N1 (centres undefined)	14
Cc1ccc(/C=C/C(=O)OCC(=O)NCCN2C(=O)CSC2=O)o1	-5
CC(NC(=O)c1ccc(OC2CCN(C(=O)c3cccnc3)CC2)cc1)C1CC1 (centres undefined)	6
Cc1nnc(C)n1/N=C/c1cccc([N+](=O)[O-])c1	13
CC(=O)N1c2ccccc2C2(C)C(C1(C)C)C2(Cl)Cl (centres undefined)	7
CCN(CC)S(=O)(=O)c1ccc(N2CCOCC2)c(NC(=O)CNCCc2ccccc2)c1	14
CC(C)CC(=O)NS(=O)(=O)c1ccc(NS(C)(=O)=O)cc1	12
CC(=O)c1ccc(N2CCN(C(=S)Nc3ccc(Cl)c(Cl)c3)CC2)cc1	-3
O=C(NCc1ccc(F)cc1)c1ccc(N2CCc3ccccc32)c([N+](=O)[O-])c1	13
S=C(NC1CCCC1)N1CCN(c2ncccn2)CC1	10
Cc1ccc(-c2nc3sc(C#N)c(N)n3c(=O)c2C#N)cc1	-5
O=C(COC(=O)C1=COCCO1)NC1CCCCCCC1	16
CCN(C(=O)[C@@H]1CCCN1C(=O)c1cccs1)c1nc2cc(Cl)ccc2s1	10
COc1ccc(NC(=S)NC2CC3CCC(C2)N3Cc2ccco2)cc1 (centres undefined)	17
COc1ccc(-n2cnc3cc([N+](=O)[O-])ccc32)cc1	31
CCCCCCn1c(=O)[nH]c2nc3cc(N)c(C)cc3nc2c1=O	7
S=c1[nH]nc(CN2CCCCC2)n1-c1ccc(Cl)cc1	-1
CC[n+]1ccccc1/C=C/Nc1ccccc1	2
CCOC(=O)NC(=O)COC(=O)c1ccc(O)cc1	6
COC(=O)c1cnc(N2CCCN(S(=O)(=O)c3ccccc3)CC2)nc1C(F)(F)F	13
CCn1nc(C)c(Br)c1Nc1ccc(Br)cc1	11
Cc1cccc(C(=O)NC2C(=O)NNC2c2ccc(Cl)cc2)c1 (centres undefined)	4
Cc1ccc(-c2csc3nc4cc(C(=O)NC5CCC(O)CC5)ccc4c(=O)n23)cc1 (centres undefined)	9
Cc1ccc(S(=O)(=O)/N=S(\C)C(C)C)cc1 (centres undefined)	10
Cc1cc(NC(=O)c2ccccc2F)nc2c1c(=O)oc1ccccc12	12
O=C(C[n+]1cccc(CNC(=O)c2ccc(OC(F)F)cc2)c1)Nc1ccc(F)cc1	-17
CCC(C)(C)n1nnnc1CN1CCC(NC(=O)c2ccc(Br)cc2)CC1	-2
Cc1ccc(N=C2NC(=O)/C(=C/c3cccn3C)S2)c(C)c1	16
O=S(=O)(NC1=NCCCCC1)c1ccccc1Cl	-3
Nc1cc2ccncc2c2ccccc12	13
C=C(C)C1CC=C(C)/C(=N\NC(=O)CCC(=O)Nc2ccc(C)c(C)c2)C1 (centres undefined)	9
COc1ccccc1N(C)S(=O)(=O)c1ccc(C(=O)OCC(=O)NCC(F)(F)F)cc1	11
CCCCNc1nc(C)c(C(C)=O)cc1C#N	-24
CC(=O)c1ccc(OCC(=O)Nc2ccc3nc(C)sc3c2)cc1	3
CCOC(=O)N/N=C(C)/C=C/c1ccccc1	16
Cc1ccc(SCCC(=O)Nc2ccc(Br)c(C)c2)cc1	27
Cc1ccc2c(C)cc(=S)[nH]c2c1	6
COc1cccc(C(=O)C2CCCN(Cc3cn(CC(N)=O)c4ccccc34)C2)c1 (centres undefined)	2
C=CCOc1c(Br)cc(CNn2cn[nH]c2=S)cc1OC	12
C=CCC1NCCc2c(Br)cccc21 (centres undefined)	16
CCCC(=O)NCCc1cc(OC)c(OC)cc1Br	19
CC(O)[C@H]1CNC(=O)C(=O)N1CC1CCCCC1 (some centres undefined)	-2
COc1cc([N+](=O)[O-])cc2cc(C(=O)NC(C)(C)C)c(=O)oc12	16
Cc1cccc(C)c1-n1c(SCC(=O)Nc2ccc(C(=O)O)cc2)nnc1-c1cccc(S(=O)(=O)N(C)C)c1	-2
Cc1ccc(-c2cc(C(=O)N/N=C/c3c[nH]c4ccccc34)[nH]n2)cc1	-11

17 of these compounds, set out differently:
Structure | Biofilm kill mix
Cc1ccc(N=C2NC(=O)/C(=C/c3cccn3C)S2)c(C)c1 | 16
O=S(=O)(NC1=NCCCCC1)c1ccccc1Cl | -3
Nc1cc2ccncc2c2ccccc12 | 13
C=C(C)C1CC=C(C)/C(=N\NC(=O)CCC(=O)Nc2ccc(C)c(C)c2)C1 (centres undefined) | 9
COc1ccccc1N(C)S(=O)(=O)c1ccc(C(=O)OCC(=O)NCC(F)(F)F)cc1 | 11
CCCCNc1nc(C)c(C(C)=O)cc1C#N | -24
CC(=O)c1ccc(OCC(=O)Nc2ccc3nc(C)sc3c2)cc1 | 3
CCOC(=O)N/N=C(C)/C=C/c1ccccc1 | 16
Cc1ccc(SCCC(=O)Nc2ccc(Br)c(C)c2)cc1 | 27
Cc1ccc2c(C)cc(=S)[nH]c2c1 | 6
COc1cccc(C(=O)C2CCCN(Cc3cn(CC(N)=O)c4ccccc34)C2)c1 (centres undefined) | 2
C=CCOc1c(Br)cc(CNn2cn[nH]c2=S)cc1OC | 12
C=CCC1NCCc2c(Br)cccc21 (centres undefined) | 16
CCCC(=O)NCCc1cc(OC)c(OC)cc1Br | 19
CC(O)[C@H]1CNC(=O)C(=O)N1CC1CCCCC1 (some centres undefined) | -2
COc1cc([N+](=O)[O-])cc2cc(C(=O)NC(C)(C)C)c(=O)oc12 | 16
Cc1cccc(C)c1-n1c(SCC(=O)Nc2ccc(C(=O)O)cc2)nnc1-c1cccc(S(=O)(=O)N(C)C)c1 | -2

Next part
SMILES	Biofilm kill mix
O=C(NC(=S)Nc1ccc(S(=O)(=O)N2CCCCCC2)cc1)c1cccs1	5
CN(C)c1cc[n+](CC(=O)c2ccc(OC(F)F)cc2)cc1	22
COc1ccc(C(C)=O)cc1COC(=O)c1cc(C)nc2ccccc12	19
N=C(c1ccc([N+](=O)[O-])cc1)N1CCCCC1	-3
CCCc1nnc(SCC(=O)N(CC)CC)n1CC1CCCO1 (centres undefined)	3
O=C(NC(=S)N1CCc2ccccc21)c1ccc(Br)o1	14
O=C(CNC(=O)c1ccco1)OCC(=O)c1ccc(Cl)cc1Cl	9
CN(c1ccc(OCC(=O)OCC(=O)c2c(N)n(C)c(=O)n(C)c2=O)cc1)S(=O)(=O)c1ccc2ccccc2c1	10
CC(C)C(=O)N1CCC2(CC1)Oc1ccc(Cl)cc1C(=O)C21CC(c2ccccc2)=NO1 (centres undefined)	7
Fc1ccccc1Cn1cc(C(=S)N2CCOCC2)c2ccccc21	3
Cc1ccc(C)c(Cn2nnc3c(=O)[nH]c(C(=O)Nc4ccc(F)cc4)nc32)c1	19
CN(C)/C=N/C1=C(C#N)C(c2cccs2)c2ccc3ccccc3c2O1 (centres undefined)	15
COC(=O)c1cccc(Nc2ccc([N+](=O)[O-])cn2)c1	26
COc1ccc(/C=C2\SC(=O)N(CCNC(=O)CCS(=O)(=O)c3ccc(C)cc3)C2=O)cc1	15
CC1(NC(=S)NCCO)CCS(=O)(=O)C1 (centres undefined)	19
COc1ccc(NC(=O)N/C=C/c2ccc(Cl)cc2)cc1	-2
COc1cc(/C=N\Nc2cc(=O)n(C)c(=O)n2C)ccc1O	17
S=C(NCc1ccc2[nH]c3c(c2c1)CCCC3)Nc1ccccc1	13
O=C(CCNc1cccc(F)c1)c1cccc([N+](=O)[O-])c1	-1
CCC1CCCCN1CCCNC(=O)c1ccc(N2CCOCC2)c(NS(=O)(=O)c2ccc(OC)cc2)c1 (centres undefined)	18
COc1ccc(CNC(=O)CSc2nnc(C)s2)cc1	8
N/C(CSc1ccc(Cl)cc1)=N\S(=O)(=O)c1ccc(Cl)cc1	21
O=C(NC(=S)Nc1cccc(CO)c1)c1ccc(-c2ccccc2)cc1	11
CCCOc1ccc(CNCCCOCC)cc1OC	16
COc1ccc(S(=O)(=O)N2CC=C(C(=O)Nc3ccc(NC(C)=O)cc3)CC2)cc1	15
COc1cccc(CC(=O)Nc2nc3c(s2)C(=O)CC(C)(C)C3)c1	19
C=CCN1C(=O)/C(=c2\sc3nc(=O)c(Cc4ccccc4Cl)nn3c2=O)c2ccccc21	24
Cc1ccc(C)c(NC(NC(=O)c2ccccn2)C(Cl)(Cl)Cl)c1 (centres undefined)	25
CSc1ccccc1NC(=O)CN(C)CC(=O)Nc1cccc(Br)c1	15
COc1cc(C)c(S(=O)(=O)N2CCN=C2c2ccccc2)cc1C	-12
C=CCn1c(Cc2c(C)[nH]c3ccccc23)nnc1SCC(=O)NCc1ccc(F)cc1	6
CCc1nc2ccccc2n1Cc1ccc(F)cc1	19
COc1ccc(CCC(=O)OCC(=O)c2ccc(C)cc2)cc1	10
